Insulin prom inh – TRM-6 insulin promoter activity inhibition. inhibition, % at 2 µM. TRM-6 cells (human fetal islet line), insulin promoter-eGFP reporter, imaging; reporter expression induced with tamoxifen. AID 1273. actives 0.9% (n = 130,000);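 active = inhibition above the mean plus 3 SD, with well images judged a real hit on visual review, cut at about 60% in these data, passing the limit was not always enough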
PKD1 kinase inh – blocks activity of human protein kinase D1; PKD1 kinase fluorescence polarization assay; AID 797; inhibition, %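 (about 10 µM by stock and volumes)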; Q15139; actives 0.056% (n = 200,000);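 active = inhibition of 50% or more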;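 also: controls were vehicle for no effect and a reference inhibitor for full effect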
RGS16-Gao – modulates binding between human RGS16 and Galphao; O15492+P09471; bead-based flow cytometry RGS16-Galphao binding, fluorescence; actives lie on both sides; binding response (% of control), % at 10 µM; actives 0.38% (n = 220,000);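 active = below 25% or above 175%, edge rows of some plates excepted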;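 also: Galphao activated by GDP with aluminum fluoride before binding; 100% = wells without compound and 0% = beads without RGS; some results beyond the cut were filed as inactive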
Target sequence (O15492 whole entry, looked up): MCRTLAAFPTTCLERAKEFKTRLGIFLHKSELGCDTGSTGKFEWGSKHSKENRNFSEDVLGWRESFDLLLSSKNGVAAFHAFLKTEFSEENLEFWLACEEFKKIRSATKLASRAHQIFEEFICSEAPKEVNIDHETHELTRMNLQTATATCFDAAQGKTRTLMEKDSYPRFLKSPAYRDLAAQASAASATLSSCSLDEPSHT
Target sequence (P09471 whole entry, looked up): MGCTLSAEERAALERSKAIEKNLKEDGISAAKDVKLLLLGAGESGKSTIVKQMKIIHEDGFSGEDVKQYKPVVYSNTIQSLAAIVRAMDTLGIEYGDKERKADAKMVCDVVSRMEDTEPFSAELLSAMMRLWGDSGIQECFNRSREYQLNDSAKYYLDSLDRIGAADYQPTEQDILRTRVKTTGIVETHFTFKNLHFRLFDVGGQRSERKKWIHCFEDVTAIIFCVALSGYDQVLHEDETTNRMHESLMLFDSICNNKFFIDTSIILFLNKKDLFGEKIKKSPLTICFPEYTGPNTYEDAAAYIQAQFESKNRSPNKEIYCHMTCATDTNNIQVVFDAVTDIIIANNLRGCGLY
GALR2 ag – GALR2 (human) receptor agonism; activation, %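 (tested at 5 µM)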; actives 0.48% (n = 140,000); GALR2-expressing cells, agonist activation read-out;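 active = above mean plus 3 SD of all compounds, about 5% in these data, not always enough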;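 also: 0% = vehicle buffer wells and 100% = reference agonist at full effect; tested in CHO reporter cells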
Target sequence (O43603 whole entry, looked up): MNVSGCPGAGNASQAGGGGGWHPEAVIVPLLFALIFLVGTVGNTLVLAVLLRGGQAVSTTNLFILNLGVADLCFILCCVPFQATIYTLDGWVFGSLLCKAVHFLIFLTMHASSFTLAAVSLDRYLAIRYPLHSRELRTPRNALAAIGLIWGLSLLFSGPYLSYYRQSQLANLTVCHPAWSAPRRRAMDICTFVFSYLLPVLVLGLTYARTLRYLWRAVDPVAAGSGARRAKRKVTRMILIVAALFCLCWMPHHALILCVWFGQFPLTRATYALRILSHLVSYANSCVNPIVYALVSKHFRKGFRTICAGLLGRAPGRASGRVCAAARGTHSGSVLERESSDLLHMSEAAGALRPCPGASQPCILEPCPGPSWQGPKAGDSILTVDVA
HSV augment – HSV replication enhancement; HSV replication augmentation in cells, fold increase; maximum fold increase; actives 0.005% (n = 220,000); AID 1956;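 active = peak rise of 1.5-fold or more in the series; tested in PC3 cells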;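 also: first round at 10 µM; read as green reporter fluorescence; hits show the peak of a series up to 25 µM; 1 = signal of infected wells without compound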
Insulin prom inh cell count – further read-out of Insulin prom inh, marked with its call; normalized cell count, %; measured here: cell count, toxicity; reference of the scale not given here;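 cells exposed to compound for 48 h; stained nuclei by imaging scaled within each plate; lower means fewer cells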
HSV augment primary fold – also measured in HSV augment; calls as there; fold increase; compound at 10 µM; measured here: primary screen fold increase 10 uM; tested in PC3 cells;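 GFP signal in the first replicate; 1 = infected wells without compound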
* marks the source's active call; other numbers are inactive results; i = inactive; x = no result given.

SMILES | Insulin prom inh | Insulin prom inh cell count | PKD1 kinase inh | RGS16-Gao | GALR2 ag | HSV augment | HSV augment primary fold
O=C(CCl)Nc1ccc(Sc2ccc(NC(=O)CCl)cc2)cc1 | x | x | x | 95.7 | x | i | 0.77
CCOc1ccc(C2C(C(=O)c3cccs3)=C(O)C(=O)N2Cc2cccnc2)cc1 (configuration not stated) | -50.0 | 101.9 | -4.8 | 94.5 | x | i | 0.96
CCOc1ccccc1N(CC(=O)NC(C)(C)C)C(=O)Cn1nnc(-c2ccc(C)o2)n1 | -36.1 | 96.1 | 11.2 | 100.8 | -2.5 | i | 1.06
O=c1c2[nH]c3ccc(Br)cc3c2ncn1Cc1ccncc1 | x | x | x | 99.6 | x | i | 0.94
CCOC(=O)c1cc(CC)sc1NC(=O)c1cccc(N2C(=O)CCC2=O)c1 | x | x | 1.9 | 99.1 | 2.3 | i | 1.11
C=CCOc1ccc(Br)cc1CNCC | x | x | 0.9 | 105.6 | x | i | 1
COc1ccc(/C=N/Nc2nc(-c3cccnc3)nc3ccccc23)c(OC)c1 | x | x | x | 102.5 | x | i | 0.82
COc1cc(NC(=O)NS(=O)(=O)c2ccc(C)cc2)cc(OC)c1 | 29.0 | 135.4 | -3.3 | 98.6 | -2.7 | i | 0.96
CCOc1ccc(/C(O)=C/C(=O)C(=O)Nc2ccc(S(=O)(=O)NC(C)=O)cc2)cc1 | x | x | 6.7 | 100.5 | -0.4 | i | 1.17
CC(NC(=O)C1CCN(S(=O)(=O)N2CCC3(CC2)OCCO3)CC1)c1ccccc1 (configuration not stated) | x | x | 2.2 | 98.0 | x | i | 1
C[C@@H]1CN(Cc2cn(C)nc2-c2cccc(Cl)c2)C[C@H](C)O1 | -115.4 | 107.1 | 3.7 | 105.6 | x | i | 1.04
O=C(Nc1nnc(CC(=O)N2CCOCC2)s1)c1cccs1 | 61.9 | 106.9 | -3.1 | 95.7 | -2.4 | i | 0.993
O=C(O)C(Cc1ccccc1)N1C(=O)/C(=C/C=C/c2ccco2)SC1=S (configuration not stated) | x | x | x | 90.7 | x | i | 1.3
CCC(c1nnnn1CCc1ccccc1)N(Cc1ccco1)Cc1cc2cccc(C)c2[nH]c1=O (configuration not stated) | -45.5 | 201.8 | 0.2 | 105.1 | 1.6 | i | 0.82
COc1ccc(C2CC(=O)N(C)c3ccccc3S2)cc1OC (configuration not stated) | x | x | -1.9 | 102.5 | x | i | 1.07
C=CCOc1cccc(C2/C(=C(\O)c3ccc(F)cc3)C(=O)C(=O)N2CCN(C)C)c1 (configuration not stated) | -22.2 | 158.9 | -3.9 | 103.3 | -0.5 | i | 1.07
Cc1ccc(CNc2ncc(-c3ccc4c(c3)OCO4)n2C)cc1 | 10.0 | 105.3 | -19.4 | 97.6 | -1.7 | i | 0.77
CN1c2ccccc2C(O)=C(C(=S)Nc2ccc(Cl)cc2)S1(=O)=O | 18.8 | 71.6 | -1.7 | 94.5 | -1.5 | i | 0.99
O=C(C1CC1(c1ccccc1)c1ccccc1)N1CCOCC1 (configuration not stated) | 21.7 | 103.2 | 9.7 | 104.4 | -0.5 | i | 1.02
CCC(C)(C(=O)NC1CCCCC1)N(Cc1ccco1)C(=O)c1cnccn1 (configuration not stated) | i | 69.4 | -9.1 | 106.1 | -2.4 | i | 1.22
CCCNC(=O)c1ccc(SCC(=O)N(CC)CC)c([N+](=O)[O-])c1 | 40.0 | 113.8 | -0.4 | 101.8 | x | i | 0.95
O=C(Oc1ccc[nH]c1=O)c1cc([N+](=O)[O-])cc([N+](=O)[O-])c1 | x | x | x | 101.5 | x | i | 1
CC1CCCN(S(=O)(=O)c2ccc(NC(=O)CCN3C(=O)c4ccccc4C3=O)cc2)C1 (configuration not stated) | -26.5 | 118.2 | -14.7 | 97.9 | -1.4 | i | 0.9
CCOc1cc(-n2ncc(C#N)c2N)nc(SC)n1 | -29.4 | 106.1 | 0.5 | 101.3 | -1.2 | i | 1.01

Rewritten as a markdown table: part of the list above
| structure | Insulin prom inh | Insulin prom inh cell count | PKD1 kinase inh | RGS16-Gao | GALR2 ag | HSV augment | HSV augment primary fold |
| --- | --- | --- | --- | --- | --- | --- | --- |
| O=C(O)C(Cc1ccccc1)N1C(=O)/C(=C/C=C/c2ccco2)SC1=S (configuration not stated) | x | x | x | 90.7 | x | i | 1.3 |
| O=C(C1CC1(c1ccccc1)c1ccccc1)N1CCOCC1 (configuration not stated) | 21.7 | 103.2 | 9.7 | 104.4 | -0.5 | i | 1.02 |

(next part)
SMILES | Insulin prom inh | Insulin prom inh cell count | PKD1 kinase inh | RGS16-Gao | GALR2 ag | HSV augment | HSV augment primary fold
CNC(=S)N1CCc2cc(OC)c(OC)cc2C1COc1ccc(OC)cc1 (configuration not stated) | 11.8 | 7.6 | -9.6 | 104.8 | x | i | 0.96
OCCCNC(=S)Nc1ccc(Nc2ccccc2)cc1 | 29.4 | 96.7 | -5.3 | 101.7 | x | i | 1.06
CCc1c(C(=O)OC)nnc2cc(C)nn12 | -2.7 | 100.8 | -6.0 | 99.5 | -1.9 | i | 1
O=C(NCC1CCCCN1)c1cc(OCC(F)(F)F)ccc1OCC(F)(F)F (configuration not stated) | 9.5 | 145.2 | 4.9 | 103.8 | 0.0 | i | 0.7
CC(=O)Nc1ccc(S(=O)(=O)NNC(=O)COc2cccc3ccccc23)cc1 | -51.6 | 146.4 | 11.3 | 98.4 | 0.0 | i | 0.98
CC(=O)NC1=NN(C(C)=O)C(C)(c2cccc([N+](=O)[O-])c2)S1 (configuration not stated) | x | x | -11.5 | 93.9 | x | i | 1.01
Cc1ccc(C)c(NC(=S)/C(=C(\[O-])c2ccc(Cl)s2)[n+]2ccccc2)c1 | x | x | -2.4 | 100.3 | x | i | 1.03
COc1cc(/C=N/N=C(N)N)ccc1OCc1ccccc1Cl | x | x | 1.3 | 97.9 | x | i | 0.7
CCc1ccc(CNC(=O)C(=O)NCCc2ccc(OC)c(OC)c2)cc1 | -4.2 | 124.5 | 0.6 | x | -3.9 | x | x
CCOc1ccc(S(=O)(=O)Oc2ccc3ccccc3c2)cc1 | 16.7 | 97.1 | 14.7 | 102.8 | 0.1 | i | 1.04
Cc1ccc(/C=N/N2C(=S)SC(C)(C)C2N(O)C(=O)Nc2ccc([N+](=O)[O-])cc2)cc1 (configuration not stated) | -18.4 | 101.4 | -7.5 | 98.6 | -1.4 | i | 0.86
CCCn1c(N)c(Sc2ccc(C)cc2)c(=O)n(CCC)c1=O | x | x | -1.1 | 98.2 | x | i | 1.01

Five records picked at random from the list so far, as already listed:
SMILES | Insulin prom inh | Insulin prom inh cell count | PKD1 kinase inh | RGS16-Gao | GALR2 ag | HSV augment | HSV augment primary fold
CCOc1ccc(S(=O)(=O)Oc2ccc3ccccc3c2)cc1 | 16.7 | 97.1 | 14.7 | 102.8 | 0.1 | i | 1.04
Cc1ccc(/C=N/N2C(=S)SC(C)(C)C2N(O)C(=O)Nc2ccc([N+](=O)[O-])cc2)cc1 (configuration not stated) | -18.4 | 101.4 | -7.5 | 98.6 | -1.4 | i | 0.86
COc1cc(/C=N/N=C(N)N)ccc1OCc1ccccc1Cl | x | x | 1.3 | 97.9 | x | i | 0.7
O=C(NCC1CCCCN1)c1cc(OCC(F)(F)F)ccc1OCC(F)(F)F (configuration not stated) | 9.5 | 145.2 | 4.9 | 103.8 | 0.0 | i | 0.7
CNC(=S)N1CCc2cc(OC)c(OC)cc2C1COc1ccc(OC)cc1 (configuration not stated) | 11.8 | 7.6 | -9.6 | 104.8 | x | i | 0.96

Remaining list, next part:
SMILES | Insulin prom inh | Insulin prom inh cell count | PKD1 kinase inh | RGS16-Gao | GALR2 ag | HSV augment | HSV augment primary fold
CNCCCCOc1ccccc1-c1ccccc1 | -6.5 | 79.0 | 5.5 | 105.0 | -1.0 | i | 0.88
CC(C)Cn1c(-c2ccncc2)n[nH]c1=S | 64.7 | 98.6 | -3.1 | 95.9 | x | i | 1.03
COc1cccc(-c2cc(C(=O)Nc3ccccc3SC)no2)c1 | x | x | -4.1 | 102.5 | -2.5 | i | 1.01
CCOc1ccc(NC(=O)CN(C)CC(=O)Nc2ccccc2C#N)cc1OCC | x | x | -1.0 | 101.4 | -0.2 | i | 0.99
COc1ccc(CCNC(=O)C2CCN(S(=O)(=O)N3CC(C)CC(C)C3)CC2)cc1OC (configuration not stated) | -53.9 | 83.2 | -1.4 | 46.3 | -1.3 | i | 0.85
Cc1sc2ncn(CC(=O)NCC3COc4ccccc4O3)c(=O)c2c1S(=O)(=O)N1CCCCC1 (configuration not stated) | x | x | -0.3 | 96.1 | x | i | 0.85
Cc1nc(-n2cc(F)c(=O)[nH]c2=O)c2nc(C)oc2n1 | x | x | 2.8 | 90.0 | -2.6 | i | 0.86
O=[n+]1c2c(n([O-])c3cc(F)c(F)cc31)CCCC2 | 21.4 | 137.3 | -9.1 | 95.9 | -2.3 | i | 0.993
O=c1cc(-c2c(O)c3ccccc3n(Cc3ccccc3)c2=O)[nH][nH]1 | x | x | -14.8 | 99.9 | x | i | 0.63
CC1(C)CC(=O)C(C=NC2CCCCC2)=C(O)C1 | x | x | 2.2 | 102.0 | -0.5 | i | 0.97
CCN(CC)c1nc2c(s1)C(=O)NCCC2 | 46.1 | 45.8 | -4.9 | 98.2 | -0.6 | i | 0.87
Cc1ccnc(NC(=O)c2ccc(S(=O)(=O)c3ccccc3)cc2)c1 | 28.6 | 91.0 | -3.4 | 102.6 | x | i | 1.04
COC(=O)c1ccc(NC(=O)COc2ccc(C3C(C#N)=C(N)Oc4c3ccc3ccccc43)cc2OC)cc1 (configuration not stated) | 22.6 | 73.7 | -7.7 | 71.6 | -0.8 | i | 1.22
CNC(=O)NC(=O)Cn1cnc2sc(-c3ccccc3)cc2c1=O | x | x | x | 101.6 | x | i | 1.06
CCOC(=O)c1nnn(-c2nonc2N)c1C | -39.1 | 102.8 | -6.1 | 85.7 | -1.9 | i | 0.78
COCC(=O)Nc1cc(C(=O)NCCc2ccccc2)ccc1Cl | -50.0 | 56.3 | -5.9 | 106.5 | -1.5 | i | 0.86
O=C(CCCCCNC(=S)Nc1ccccc1)C[N+](=O)[O-] | x | x | 0.3 | 92.8 | x | i | 0.96
CC(=O)c1c(N2CCOCC2)[nH]c(-c2ccccc2)nc1=S | -221.4 | 101.8 | -10.6 | 101.2 | -0.5 | i | 1.16
O=C(CCSc1nnc(-c2ccco2)o1)N1CCOCC1 | -8.3 | 150.7 | -3.1 | 97.5 | x | i | 1.01
COc1ccc(OC)c(CN2CCC(C(=O)N3CCN(c4ccccc4F)CC3)CC2)c1 | -8.3 | 114.8 | 1.9 | 109.7 | 0.4 | x | x
COC(=O)c1ccccc1NC(=S)NC(=O)c1ccc(C)cc1 | x | x | 1.5 | 101.2 | -0.5 | i | 1.06
CC1=C(C(=O)Nc2ccccc2)C(c2ccco2)C(C#N)=C(SCc2ccccc2)N1 (configuration not stated) | -21.4 | 82.8 | -9.0 | 99.9 | -1.9 | i | 0.48
CC(C)CCNC(=O)C(c1ccncc1)N(CC1CCCO1)C(=O)Cn1nnc(-c2ccc(F)cc2)n1 (configuration not stated) | x | x | -3.4 | 102.0 | x | i | 1.06
CCOC(=O)Cn1c(S(=O)(=O)Cc2ccc(Cl)cc2)nc(-c2ccccc2)c1-c1ccccc1 | -30.0 | 135.1 | 2.5 | 99.4 | -2.0 | i | 1.06
O=C(CSc1ccccn1)Nc1ccc(Cl)c([N+](=O)[O-])c1 | x | x | -2.5 | 103.4 | x | i | 0.92
Cc1cc(N2CCCCC2)n2ncc(-c3ccccc3)c2n1 | 26.7 | 104.8 | -36.0 | 105.2 | 3.6 | i | 0.93
O=C1S/C(=C/c2ccccc2)C(=O)N1CC(O)Cn1c2ccccc2c2ccccc21 (configuration not stated) | -16.1 | 121.4 | -4.3 | 101.0 | -1.8 | i | 0.98
COc1ccc2sc(C)[n+](C)c2c1 | x | x | -4.5 | 98.4 | x | i | 1
CCOc1ccc(NC(=O)NNC(=O)C2CCC(C(C)(C)C)CC2)cc1 (configuration not stated) | x | x | 6.2 | 100.8 | x | i | 1.03
CN(C)NC(=S)Nc1cccc(C(F)(F)F)c1 | x | x | x | 91.1 | x | i | 0.82
CC(C)CC(NC(=O)CC12CC3CC(CC(C3)C1)C2)C(=O)NC1=NCCS1 (configuration not stated) | x | x | -9.7 | 96.5 | x | i | 0.84
CC(C)OC(=O)n1c(=S)oc2ccccc21 | 41.7 | 134.0 | -9.5 | 101.4 | -0.3 | i | 0.9
CSCC[C@@H](C(=O)O)N1Cc2ccccc2C1=O | x | x | -2.3 | 103.9 | x | i | 0.87
O=S1(=O)CCC(NC(=S)SCCOc2ccccc2)C1 (configuration not stated) | x | x | -4.5 | 102.1 | x | i | 0.99
Cc1noc(C)c1COC(=O)Cn1c(C)nc2ccccc21 | 32.3 | 97.4 | 1.8 | 99.5 | -2.1 | i | 0.66

Bioassay records: PubChem, several laboratories
